From PubChem
VACV Venus inh – vaccinia inhibition (Venus reporter); Vaccinia virus Venus reporter expression, fluorescence; Potency, µM (highest dose often 36.5 µM), without a hit: at the highest dose activity change, negative = inhibition, usual class: inhibitors; 330,000 compounds, 0.46% hits; AID 720580; active means well fitted inhibition curve with a large enough effect; inconclusive means small, poorly fitted or top-dose-only effect; inactive means no such curve, though single readings can be large or run the other way; tested in A549 cells; also: nearly all actives have a fitted effect of over 30% in size; inactives centre near -10
VACV mCherry inh – inhibitors of vaccinia virus infection (mCherry reporter signal); Vaccinia virus mCherry reporter infection, fluorescence; about a quarter of the inactives have no number; Potency, µM (highest dose often 36.5 µM), for the others: top-dose activity change, negative = inhibition, actives largely listed as inhibitors; 310,000 compounds, 0.63% hits; active = well fitted inhibition curve with a large enough effect; inconclusive = small, poorly fitted or top-dose-only effect; inactive = no such curve, though single readings can be large or run the other way; tested in A549 cells; also: nearly all actives have a fitted effect of over 35% in size; inactives centre near -10
The depositor's hits bear a star; i = inactive; u = inconclusive; x = not tested or not shown; [ ] = remark or other dose. % is scaled to controls: 0 for no effect and ±100 for the full control effect; potency is read from the fitted curve at half-maximal effect.

SMILES	VACV Venus inh	VACV mCherry inh
Cc1oc2cc3oc(=O)c(CCC(=O)N(C)CC(=O)O)c(C)c3cc2c1C	-3.2%	i
COc1ccc(CS(=O)(=O)/C(Cl)=C(/Cl)C(=O)Nc2ccc(OC)nc2)cc1	10µM*	x
CCOC(=O)c1ccc(NC2OC(=O)c3ccccc32)cc1 (centres undefined)	-5.1%	-0.3%
COc1ccc(NC(=O)c2ccc(NC(=O)c3ccco3)cc2)c(OC)c1	0.0%	i
COc1ccc(C2=NCCc3cc(OC)c(OC)cc32)cc1OC	-4.5%	-7.1%
N#Cc1c(NC(=O)CN2CCN(C(=O)c3ccco3)CC2)sc2c1CCCCC2	-5.0%	-8.0%
O=C(C1CCCO1)N1CCN(Cc2nc3ccccc3c(=O)[nH]2)CC1 (centres undefined)	5.6%	-14.3%
CCC(Sc1nc2n[nH]c(C)c2c(=N)n1-c1ccc(C)c(Cl)c1)C(=O)N1CCOCC1 (centres undefined)	u	x
CCN(CC)CC#CC(C)(C)OC(C)=O	-6.5%	-11.4%
CCCNC(=O)C1(C)CCCN(Cc2cccc3ccccc23)C1 (centres undefined)	-5.6%	i
COc1cccc(C(C(=O)NCc2ccccc2)N(C(=O)c2csnn2)C2CC2)c1 (centres undefined)	-1.2%	-4.0%
Cc1ccccc1N(CC(=O)N/N=C/c1ccccc1Cl)C(=O)c1ccccc1	-12.5%	-17.9%
Cc1cccc(C)c1OC(=O)CSc1nnc(-c2cccs2)o1	-4.0%	-1.7%
O=C(Nc1ccccc1OC(=O)c1ccccc1)c1ccccc1	-14.4%	-21.6%
CC(C)Cn1c(N)c(C(=O)COC(=O)c2cc(-c3ccco3)nc3ccccc23)c(=O)n(C)c1=O	-14.9%	-18.4%
CCC(C)Sc1nnc(Cc2cc(=O)[nH]c(=O)[nH]2)n1-c1ccc(F)cc1 (centres undefined)	-7.9%	36.3%[activator]
O=C(Nc1nnc(C2CCCCC2)s1)C1CC(=O)N(c2ccc(F)cc2)C1 (centres undefined)	0.5%	-5.5%
Cc1cc(C)n2nc(SCC(=O)N3CCN(c4ccccc4)CC3)nc2n1	-6.0%	i
COc1ccc(NC(=O)CN2CCN(c3ccc(C)cc3C)CC2)cc1	-25.2%	-2.3%
COc1ccccc1-n1c(-c2ccccc2)n[nH]c1=S	u	u
COCc1nc2ccccc2n1Cc1ccccc1C	-1.3%	-5.9%
COc1ccc([C@@H]2[C@@H]3C(=O)N(C(C)(C)C)C(=O)[C@@H]3[C@]3(Cc4ccc(Cl)cc4)C(=O)N(c4ccc(C)cc4)C(=O)N23)cc1	-16.2%	i
Cc1ccc2cc(CN(CC3CCCO3)S(=O)(=O)c3ccc4c(c3)OCCO4)c(=O)[nH]c2c1C (centres undefined)	-2.6%	-11.4%
CCC1CCCCN1C(=O)CSC1=NN2CCCC(=O)N=C2S1 (centres undefined)	-11.9%	-3.8%
CC/C(O)=C1\C(=O)CCCC1=NCCc1c(C)[nH]c2ccc(C)cc12	-8.2%	-22.7%
CCc1cccc(C)c1NS(=O)(=O)Cc1ccccc1	-11.5%	i
CCCCCCc1c(O)nc(SCCN2CCOCC2)[nH]c1=O	-21.0%	-8.2%
COc1cccc(NC(=O)C2C3C=CC4(O3)C2C(=O)N(CCCN2CCC(C)CC2)C4C(=O)NC2CCCCC2)c1 (centres undefined)	-5.5%	i
CCOC(=O)C1=CC[C@@H](c2ccccc2Cl)N(S(=O)(=O)c2ccc(C)cc2)[C@H]1C(=O)OCC	-20.3%	u
CC(=O)NC(CC(=O)NC1CCCCCC1)c1ccccc1 (centres undefined)	4.7%	-7.2%
Cc1cccc(C(O)c2ncc(-c3cccc(C(F)(F)F)c3)[nH]2)c1C (centres undefined)	1.6%	-8.9%
CCOC(=O)[C@]12CCC=C1N(Cc1cccc3ccccc13)C(=O)[C@H](CC(=O)N1CCCCC1)C2	-8.0%	-12.2%
CCCC(O)(c1ccc(Br)cc1)C(CN1CCOCC1)c1ccc(Cl)cc1 (centres undefined)	-20.1%	i
CCOc1ccccc1C(=O)N1CCOCC1	-0.1%	-6.8%
CC(C)Cn1c(N)c(C(=O)COC(=O)/C=C/c2ccccc2)c(=O)n(C)c1=O	-20.3%	u
COc1ccccc1C(=O)C1CCCN(C(=O)c2cc(C(C)C)no2)C1 (centres undefined)	-1.1%	i
C=CCn1c(=N)n(CC(O)COc2ccc(OC)cc2)c2ccccc21 (centres undefined)	-10.7%	i
O=C(CN1C(=O)C2CCCCN2c2ccc(C(=O)N3CCCC3)cc21)NCc1cccc(F)c1 (centres undefined)	-14.4%	-12.0%
CCC(C)NC(=S)N1CCN(Cc2ccc3c(c2)OCO3)CC1 (centres undefined)	6.8%	-4.6%
CCN(CC)CC(=O)Nc1nc(-c2ccc(Cl)cc2)cs1	-27.6%	x
CC(C)COC(=O)OCN1C(=O)CN(CCN2CC(=O)N(COC(=O)OCC(C)C)C(=O)C2)CC1=O	-18.7%	-9.1%
CCc1cccc2c(C#N)cn(CCOc3ccccc3OC)c12	-25.1%	-27.1%
CCN1CCN(c2cc(-c3ccccc3)nc3cc(-c4cccc(F)c4)nn23)CC1	u	x
O=C(COC(=O)c1c(Cl)ccc(Cl)c1Cl)NCC1CCCO1 (centres undefined)	-12.2%	i
COc1ccc(OC)c2[nH]c(=O)c(CCNC(=O)C(=O)c3c(C)[nH]c4ccccc34)cc12	-9.4%	i
C#CCOCCOCCOCCNc1nc(N2CCN(C(=O)[C@H](CCC(=O)O)n3cc(C(N)CC(C)C)nn3)CC2)nc(N2CCN(C(=O)[C@H](CCC(=O)O)n3cc(C(N)[C@H](C)CC)nn3)CC2)n1 (some centres undefined)	-9.7%	-10.9%
CCc1ccccc1OCC(=O)Nc1cc(S(=O)(=O)N2CCOCC2)ccc1N1CCCCC1	-19.1%	u
O=C(Nc1ccc2c(c1)OCCO2)C1CCC1	-3.7%	-10.9%
Cc1ccc(Nc2ncnc3sc4c(c23)CCC(C)C4)cc1C (centres undefined)	-11.1%	-9.3%
Cc1cn([C@H]2C[C@H](O)[C@@H](CNS(=O)(=O)c3ccc(NS(=O)(=O)N(C)C)cc3)O2)c(=O)[nH]c1=O	5.1%	-1.8%
COc1ccccc1CNC(=O)C(=O)Nc1nccs1	-18.6%	-1.3%
Cc1ccccc1OCC(=O)N/N=C1\SCC(=O)N1Cc1ccccc1	-8.0%	-13.2%
CSc1ccccc1NC(=O)c1cnc2n(c1=O)CCS2	-23.9%	i
COc1ccc(-c2cnc(SCC(=O)Nc3nc(C(C)(C)C)cs3)n2Cc2ccco2)cc1	-16.5%	x
Cc1csc(NC(=O)c2cc(-c3ccccc3)nc3ccccc23)n1	-15.6%	-0.7%
CCCCn1c(N)c(N(CC(C)C)C(=O)c2cccc(S(=O)(=O)N3CCN(C(C)=O)CC3)c2)c(=O)[nH]c1=O	3.8%	i
CP(=O)(O)CN1CCCCC1	-11.7%	-13.1%
O=C(CSc1nnc(-c2ccco2)o1)NC1CC2CCC1C2 (centres undefined)	-13.1%	x
Cc1ccc(-c2nc(C)c(CCNS(=O)(=O)c3ccccc3F)s2)cc1	3.5%	-9.7%
C#CCOCCOCCOCCNc1nc(N2CCN(C(=O)[C@H]([C@@H](C)O)n3cc(CCCCN)nn3)CC2)nc(N2CCN(C(=O)[C@H](CCCCN)n3cc(CC(C)O)nn3)CC2)n1 (some centres undefined)	-9.3%	-25.4%
Going on with the list:
SMILES	VACV Venus inh	VACV mCherry inh
Cc1ccccc1C(c1ccccc1Cl)N(C)C (centres undefined)	-2.0%	i
CCOc1ccc(NS(=O)(=O)c2cc(C(=O)N(CC)CC(=O)NCc3cccs3)ccc2C)cc1	-12.8%	-26.3%
CC(=O)Oc1ccc(C(=O)Nc2ccc(S(=O)(=O)N3CCOCC3)cc2)cc1	-8.1%	-7.1%
Cc1cnc(C(=O)Nc2ccccc2-c2ccc(C)o2)cn1	0.4%	-13.0%
CCCc1cc(C(=O)NCc2cccs2)no1	6.4%	12.8%
CC(=O)NS(=O)(=O)c1ccc(NC(=S)NC(=O)c2ccco2)cc1	-11.6%	i
CCCOc1ccc(C(=O)Nc2cccc(-c3nc4ccccc4[nH]3)c2)cc1	-20.8%	18.1%
CCC(C(=O)NC1CCCC1)n1c(C2CC2)nc2ccccc21 (centres undefined)	-5.1%	5.9%
CC(=O)Nc1ccccc1-c1nc(CNC(=O)c2cccc(-n3cccn3)c2)c(C)o1	-4.5%	-10.4%
COc1ccccc1NC1=NC2(CCCC2)N=C(N)N1	3.0%	x
CC(C(=O)OCC(=O)c1ccc(Br)cc1)N1C(=O)C2C3CCC(C3)C2C1=O (centres undefined)	0.0%	-3.8%
COc1ccc(OC)c(CNS(=O)(=O)c2c(C(=O)N3CCCCCC3)c(C)n(C)c2C)c1	-1.1%	-10.5%
CCOC(=O)CCCCCC(=O)Nc1ccc2c(c1)C(=O)N([C@@H](C)CO)C[C@H](C)[C@H](CN(C)C(=O)Nc1ccc(F)cc1)OCCCC[C@H](C)O2	-8.9%	i
CCCCn1c(N)c(N(CC(C)C)C(=O)c2cc(-c3ccc(OC)c(OC)c3)nc3ccccc23)c(=O)[nH]c1=O	-20.6%	-19.5%
Clc1ccc(N2CCN(c3ncnc4c3oc3ccccc34)CC2)cc1	-7.0%	-11.9%
O=C1NC(=O)N(Cc2ccccc2)C(=O)/C1=C\c1ccco1	32.7%[activator]	20.5%
Cc1ccccc1NC(=S)/C(=C(\[O-])c1ccc(C)c([N+](=O)[O-])c1)[n+]1ccccc1	-10.1%	i
N#Cc1nc(-c2ccco2)oc1N1CCN(c2cccc(Cl)c2)CC1	18.4%	8.9%
C=CCSc1nnc(NC(=O)COc2ccc3ccccc3c2)s1	-1.8%	-20.6%
COc1ccc(NC(=O)/C(C#N)=C/C=C/c2ccco2)cc1	u	u
O=C(O)c1ccc(CNCc2cc(Cl)ccc2O)cc1	-10.3%	i
COc1ccc(N=Nc2[nH]c3ccc(C)cc3c2O)cc1	-2.4%	i
CC(Sc1ccccc1)C(=O)Nc1ccccc1C(=O)N1CCOCC1 (centres undefined)	-7.2%	x
COc1ccc(S(=O)(=O)N2CCCCCC2)cc1C(=O)N(C)CC(=O)Nc1ccccc1Cl	-8.1%	-0.1%
O=C(O)CC1S/C(=N/N=C/C2CC=CCC2)NC1=O (centres undefined)	-13.6%	-0.7%
CCOC(=O)N1CCC(NC(=O)C(NS(=O)(=O)c2ccc3c(c2)CCN3C(=O)CC)C(C)C)CC1 (centres undefined)	-5.7%	-4.3%
O=C1NC(=O)c2cc(NC(=O)C3COc4ccccc4O3)ccc21 (centres undefined)	-8.2%	-9.4%
COCCCN1C(=O)C(CC(=O)NC2CCCCC2)CC(C(=O)N2CCOCC2)=C1C (centres undefined)	-9.1%	i
CC/C(=C\C(=O)c1cccnc1)Nc1ccc(C)c(C)c1	-16.6%	x
C=CCn1c(C)cc(C(=O)CSc2nc(N)cc(N)n2)c1C	-17.8%	-5.0%
O=C(NCCCCCCNC(=O)c1cncc(O)c1)c1cncc(O)c1	-20.5%	-14.2%
CCC(C)n1c(O)c(C=NCc2cccnc2)c(=O)[nH]c1=S (centres undefined)	-21.7%	-6.6%
C=CCOc1nc2c(c(=O)n(C)c(=O)n2C)n1Cc1c(Cl)cccc1Cl	-22.6%	-14.5%[1.46 µM]
COc1cc(Cl)c(C)cc1NC(=O)COc1ccc(C)nc1[N+](=O)[O-]	2.5%	-6.7%
COc1ccc(OC)c(C(=O)NC(CC(N)=O)c2ccc(N3CCN(c4ccccc4)CC3)c([N+](=O)[O-])c2)c1 (centres undefined)	-11.1%	-11.4%
O=C(c1cccc(S(=O)(=O)NCc2ccccc2)c1)N1CCN(c2cccc(C(F)(F)F)c2)CC1	u	u
O=C(Cc1c(F)cccc1Cl)NC1=NCCS1	-12.7%	i
COC(=O)c1ccc(CNC(=O)c2ccc3oc(C(C)C)nc3c2)cc1	-5.2%	-11.8%
Cc1nn(CC(=O)NNC(=S)NCC2CCCO2)c(C)c1Br (centres undefined)	-8.0%	-25.4%
CCOc1ccccc1NC(=O)C1CCN(C(=O)NCc2ccccc2)CC1	-15.2%	-17.9%
COc1ccc(N2CCN(c3ncnc4c3[nH]c3ccccc34)CC2)cc1	u	x
CCN(C(=O)COC(=O)CCCN1C(=O)c2cccc3cccc(c23)C1=O)C1CCS(=O)(=O)C1 (centres undefined)	-3.4%	i
CC(C)Cn1cnc2sc3c(c2c1=N)CCCC3	u	x
Cc1cc(CNC(=O)C2CCC(=O)N(Cc3ccccc3F)C2)on1 (centres undefined)	-18.5%	i
COc1ccc(S(=O)(=O)N2CCN(C(=O)C3CCC3)CC2)cc1	-5.9%	-23.1%
CSCc1ccc(C(=O)Nc2cc(C)cc(C)c2)cc1	-10.5%	1.2%
